Source: PubChem (Fisher Drug Discovery Resource Center)
NPYLR7 ag: activates Aedes aegypti NPYLR7 receptor; HEK293T NPYLR7/Galpha15, GCaMP6s calcium fluorescence; activation, % at 10 µM; 270,000 tested, 0.15% active; AID 1259423; in the data active = activation above about 40%;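 note: 0% = vehicle and 100% = reference agonist at the receptor; some compounds past the cut are filed as inactive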
NPYLR7 ag max-min: further read-out of NPYLR7 ag, marked with its call; activation, %; measured here: Max-Min RFU normalised activation; some inactives read as strong as hits;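 span of the calcium signal over five minutes; 0% = vehicle and 100% = native peptide agonist; compound fluorescence can raise it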
Starred values were filed as active, the others as inactive; & = joins results of further samples. Some of the compounds tested. The share of hits here may be higher or lower than overall.

Results follow in this order: NPYLR7 ag, NPYLR7 ag max-min
O=C1CCCN1CC1CCN(C(=O)c2ccc(N3CC(O)C3)nc2)CC1
    34, 26
Cc1ccccc1-c1noc(-c2nnn(-c3ccc(Cl)cc3)c2C)n1
    2, -4
Cc1ccc2c(c1)C(CC(=O)NCCc1cn3nc(C)sc3n1)C(=O)N2 (stereo not drawn)
    7, 2
COc1cccc(-c2ccc(C(=O)N3CCC(CN4CCCC4=O)CC3)cn2)c1
    7, 2
C=Cn1nccc1C(=O)c1ccc(Cl)cc1Cl
    -9, -11
O=C(Cn1nc2c(N3CCOCC3)nccn2c1=O)NCCCc1ccccc1
    2, 1
Cc1ccc(C(=O)N2CCCC(C(=O)Nc3cccc(-c4ccc(F)cc4)c3)C2)cn1 (stereo not drawn)
    -6, -7
O=C(NCCCN1CCOCC1)Nc1ccccc1
    -6, -12
Cc1ccc(S(=O)(=O)NC(=O)Nc2nc(CN3CCCC3)cs2)cc1
    6, 4
COc1cccc(COC(=O)c2nnn(-c3ccc(Br)cc3)c2C)c1
    4, -8
COCCOc1ccc(C(F)(F)F)cc1NC(=O)c1cccs1
    -1, 24
CN(Cc1ccccc1N1CCCC1)C(=O)c1cccc(NC(=O)NC2CC2)c1
    1, -2
CCN(CCC#N)C(=O)Nc1ccc(SC(C)(C)C)cc1C
    6, 2
O=C(c1cscn1)N1CCc2c([nH]c3ccccc23)C1c1ccccc1F (stereo not drawn)
    4&-2, -1&-4
CC1CN(CCC2CCN(C(C)CC#N)CC2)CC(C)O1 (stereo not drawn)
    8, 6
CN(Cc1ccncc1)Cc1cnn(-c2ccc(F)cc2)c1
    7, 5
Cc1cccc(S(=O)(=O)N2CCN(C(=O)c3ccc(Cl)s3)CC2)c1
    -6, -10
Nc1ncnc(NC(CO)CCO)c1[N+](=O)[O-] (stereo not drawn)
    4, 4
O=C(CSc1n[nH]c(-c2cccs2)n1)N1CCN(C(=O)c2cccs2)CC1
    -7, -8
COc1ccc(-c2nc(N(CCCN3CCOCC3)CCC(=O)Nc3ccccc3F)c3ccccc3n2)cc1
    24, 32

As a short view, some entries already given.
Results follow in this order: NPYLR7 ag, NPYLR7 ag max-min
O=C(NCCCN1CCOCC1)Nc1ccccc1
    -6, -12
Cc1ccc(S(=O)(=O)NC(=O)Nc2nc(CN3CCCC3)cs2)cc1
    6, 4

(cont.)
Results follow in this order: NPYLR7 ag, NPYLR7 ag max-min
CC1(C)OCC(C2OC(Nc3ccc(C(=O)NCCC(=O)N4CCC5(CC4)OCCCO5)cc3)[C@H]3OC(C)(C)O[C@@H]23)O1 (stereo partly drawn)
    -7, -9
COCC1CCN(Cc2cn(-c3ccc(C)cc3)nc2-c2cccc(C)c2)C1 (stereo not drawn)
    5, 0
CCCCc1cnc2c(c1SCC(=O)Nc1nccs1)c(=O)n(C)c(=O)n2C
    7, 13
COc1ccc(-c2cc(C(=O)N3CCN(c4ccccc4OC)CC3)n3nc(C(C)(C)C)cc3n2)cc1
    2&17, 8&12
CC(C)CC(=O)N(Cc1nccn1Cc1cccc(F)c1)C(C)C
    7, 9
CC(CNC(=O)c1cccc(F)c1)N(C)C(=O)c1cccc(F)c1 (stereo not drawn)
    7, 2
Cc1nc2ccccc2c(C)c1CC(=O)NC1CCCCCC1
    -1, -1
Cc1c(-c2ccccc2)oc2c(C(=O)OCCN3CCCCC3)cccc2c1=O
    -4, -8
COc1cccc2ccc(CN3CCN(c4ccc(C(C)=O)cc4)CC3)nc12
    1, 15
O=[N+]([O-])c1ccc(/C=N\Nc2nc(F)cc(F)n2)cc1
    7, 3
CCCCc1ccc(C(=O)Nc2ccc(NC(=O)c3ccc(CCCC)cc3)c3c2C(=O)c2ccccc2C3=O)cc1
    8, 12
CCN(CC(=O)NCc1ccc(Cl)cc1)Cc1nc2ccccc2c(=O)[nH]1
    13, 4
CCOC(=O)C1CCCCN1CC(=O)N1N=C(c2ccc(OC)cc2OC)CC1c1ccc(F)cc1 (stereo not drawn)
    -2, 4
CC(C)c1cc(C(=O)NC2CC2)nn1-c1nc2ccccc2s1
    6, 2
CC1=Nc2ccc(C)cc2N=C(C)C1
    -3, -9
CC(C)(C)c1cc(NC(=O)c2ccc(F)cc2F)n(-c2cccc(F)c2)n1
    33, 28
CC(C)OCCCNC(CC(=O)Nc1cccc2ccccc12)C(=O)O (stereo not drawn)
    -2, -2
O=C(NC(Cc1ccccc1)C(=O)Nc1nnc(-c2cccc(Cl)c2)s1)c1cccc(C(F)(F)F)c1 (stereo not drawn)
    20, 23
CN1CCCN(c2ncccc2CNC(=O)c2cnn3ccccc23)CC1
    2, 1
Cc1cc2nc(-c3ccco3)cc(C(F)(F)F)n2n1
    7, 5
Cc1cccc(C)c1N1C(=O)CN(C(C)C)C1=S
    -6, -9
COCC1(C(=O)N(C)Cc2snnc2C)CCC1
    6, 4
COc1ccc(C(=O)NCCc2nnc3ccc(SCC(=O)Nc4ccccc4)nn23)cc1
    -5, -13
COC(=O)c1ccc(CN2CCN(c3cc(OC)cc(OC)c3)C(=O)C2C)cc1 (stereo not drawn)
    4, 8
CN(C)CCN1CCN(c2nc(-c3cccc(C(=O)NCCO)c3)cnc2N)CC1
    -1, -6
CCc1ccc2ncc(S(=O)(=O)c3ccc(C)cc3)c(N3CCC4(CC3)OCCO4)c2c1
    -10, -15
CN(NC(=O)CCC(=O)N1CCN(c2ccccn2)CC1)c1ccccc1
    1, -4
O=C(NCCN1CCOCC1)[C@@]1(OCc2cccc(Cl)c2)CC(OCc2cccc(OC(F)(F)F)c2)[C@H](O)[C@H](O)C1 (stereo partly drawn)
    5, 6
COc1ccccc1-c1nc2cc(C)ccn2c1NC(=O)c1ccc(C(C)(C)C)cc1
    -13, -11
Cc1ncsc1CCN(C)C(=O)c1cn(Cc2ccc(Cl)cc2)nn1
    -8, -7
Cc1ccccc1-c1ccc(-n2cncc2C(=O)NCCC2=CCCCC2)cc1
    -2, -11
O=C(CCN1CCN(CCO)CC1)Nc1ccc(C2CCCC2)cc1
    -7, -7
CNc1cc(-c2cccc(OC)c2F)nc2ccnn12
    -1, -3
O=C(NCC1(c2ccccc2)CCC1)c1n[nH]c(=O)c2ccccc12
    11, 4
COc1ccccc1OC1CCN(C(=O)CCC2CCCCN2C)CC1 (stereo not drawn)
    11, -2
CCc1cc2c3c(c1)C1(C(=O)N3C(C)(C)C=C2C)c2c([nH]c(=O)[nH]c2=O)OC(=N)C1C#N (stereo not drawn)
    0, -4
Cc1c(Br)c([N+](=O)[O-])nn1CC(=O)NC(C)C
    -1, -7
Cc1nc2ccc(C(=O)NCCCN3CCCC3=O)cn2c1N(C)CC1CCCCC1
    -2, -7
CC(=O)N1CCc2cc(C(=O)N3C(C(=O)O)CC4CCCCC43)ccc21 (stereo not drawn)
    -2, -2
COCCNC(=O)C(NC(=O)C1CCCC1)C1CCN(C(=O)c2cccs2)CC1 (stereo not drawn)
    -6, -8
CCc1ccccc1N(C(C)=O)c1nc(COC(=O)Cc2c[nH]c3ccccc23)cs1
    5, 2
CS(=O)(=O)c1ccc(NS(=O)(=O)c2cc(Cl)ccc2Cl)cc1
    0, -3
O=C(NC12CC3CC(CC(C3)C1)C2)C1CCC1
    4, 2
CCCCNCC(=O)N(CCc1ccccc1)Cc1ccc(C)o1
    1, -1
CSc1cccc(CN2CCC3(CCCN(CC4CC4)C3)C2)c1 (stereo not drawn)
    1, 1
CC(C)(C)N=C1NN=C(c2ccc3ccccc3c2)CS1
    6, 3
CC(NC(=O)N1CCCC2CCCC21)c1nnnn1-c1ccccc1 (stereo not drawn)
    -26, -28
CC(C)C(=O)NCCn1cc(C(C)c2ccccc2)nn1 (stereo not drawn)
    1, 5
CN(C(=O)C1CCCN(S(=O)(=O)c2ccc(F)cc2)C1)C1CCS(=O)(=O)C1 (stereo not drawn)
    -4, -4
Cc1ccc(COc2ccc(/C=N\n3c(=O)c(C(C)(C)C)nn4cnnc34)cc2)c(C)c1
    3, -2
O=C(CN(Cc1ccccc1)c1nc(Cc2ccc(Cl)cc2)ns1)NCc1cccc(C(F)(F)F)c1
    -5, 4
COc1cc(C(=O)NC2CC3CCC(C2)N3Cc2ccc3c(c2)OCO3)cc(Cl)n1 (stereo not drawn)
    1, 5
CCOc1ccnc(N2CCCC(OCc3cccnc3)C2)n1 (stereo not drawn)
    -3, -6
CN(C)c1ccc(NC(=O)C2(S(=O)(=O)c3ccccc3)CCCC2)cn1
    1, -1
CC(C)Cc1ncc2c(n1)CN(C(=O)c1ccn3nnnc3c1)C2
    -6, -10
N#Cc1ccc(COC2C[C@](OCc3cccc(C(F)(F)F)c3)(C(=O)NCCN3CCCC3)C[C@@H](O)[C@H]2O)cc1 (stereo partly drawn)
    6, 16
Cc1cc(CN2CCN(C(=O)Cn3ncc4ccccc43)CC2)on1
    1, 15
COc1cc(C(=O)N2CC[C@@](C)(O)[C@@H](Cc3ccccc3)C2)ccn1
    -2, -1
CCOc1ccc(Cl)cc1CN(C)Cc1cc2n(n1)CCCNC2
    16, 14
CN=c1scc(-c2ccc(OC(F)F)cc2)n1N=Cc1ccc(OC)cc1
    -8, -16

Compound profiles, as listed above. Order of values: NPYLR7 ag | NPYLR7 ag max-min
CC(C)(C)N=C1NN=C(c2ccc3ccccc3c2)CS1 as listed: 6 | 3
Cc1ccc(COc2ccc(/C=N\n3c(=O)c(C(C)(C)C)nn4cnnc34)cc2)c(C)c1 as listed: 3 | -2
CCOc1ccc(Cl)cc1CN(C)Cc1cc2n(n1)CCCNC2 as listed: 16 | 14
O=C(CN(Cc1ccccc1)c1nc(Cc2ccc(Cl)cc2)ns1)NCc1cccc(C(F)(F)F)c1 as listed: -5 | 4
CCOc1ccnc(N2CCCC(OCc3cccnc3)C2)n1 (stereo not drawn) as listed: -3 | -6

Continuation.
Results follow in this order: NPYLR7 ag, NPYLR7 ag max-min
CSCCCNC(=S)NC1CCOc2ccccc21 (stereo not drawn)
    3, 8
O=c1ccc(S(=O)(=O)N2CCCC2)cn1Cc1cc(=O)n2ccsc2n1
    9, 6
NC(=O)c1cc2n(n1)C(C(F)(F)F)CC(c1cccs1)N2 (stereo not drawn)
    -3, -6
CC1C(=O)N(c2cccc(Br)c2)CCN1C(=O)Nc1ccccc1 (stereo not drawn)
    4, 14
COc1cc(-c2nnc3s/c(=C\c4ccc(C)o4)c(=O)n23)cc(OC)c1OC
    3, 2
COc1ccc(C(=O)N(Cc2ccccc2)Cc2ccc(OS(C)(=O)=O)cc2)cc1
    16, 25
COc1ccc(NC(=O)c2ccncc2Cl)c(NC(=O)C(C)C)c1
    -5, -5
Cc1ccc(C(=O)N2CCCC(OCc3ccc(F)cc3)C2)cc1 (stereo not drawn)
    11, 7
Cn1c(=NC(=O)C2COc3ccccc3O2)sc2ccccc21 (stereo not drawn)
    -4, -4
O=S(=O)(NC1CCCCC1)c1ccccc1Br
    -3, -7
CCc1ccc(Nc2cc(C#N)ccn2)cc1
    4, 2
CCOC(=O)[C@@H]1CN(S(=O)(=O)C(C)C)[C@H]2c3ccc(OC)cc3O[C@@H]12
    0, 2
O=C1CN(C(=O)c2cc(C3CC3)nn2-c2ccccc2)CCN1
    7, 6
Cc1ccnc(NCCN2CC(=O)N3CC[C@@H](O)C[C@H]3C2=O)c1
    -3, 0
c1ccc2cc(OCc3nc4ccccc4[nH]3)ccc2c1
    1, -9
Cc1occc1C(=O)N1CCN(S(=O)(=O)c2ccc(Cl)c(Cl)c2)CC1
    4&3, 3&8
O=c1c2ccccc2cnn1-c1ccccc1C(F)(F)F
    9, 8
O=C(NC1CCCC1)c1ccc(F)cc1I
    4, 3
Cc1ncoc1C(=O)N1CCN([C@H]2C[C@H]3C[C@@H](c4ccccc4)OC[C@@]3(C)C2)CC1
    4, 16
CC1CN(C)CCN1C(=O)c1nnn(-c2cccc(F)c2)c1C1CC1 (stereo not drawn)
    18, 17
COc1cccc(C=C2N=C(c3ccccc3F)OC2=O)c1OC(F)F
    -1, 4
O=C(Nc1cccc(Cl)c1)C1=C(N2CCCCC2)/C(=C\c2ccccc2)CC1
    6, 7
c1ccc(CSc2ccc(-c3cccnc3)nn2)cc1
    -4, -11
O=C(CCN1C(=O)c2ccccc2S1(=O)=O)N1CCC2(CCCO2)CC1
    2, 0
Cc1oc2c(C)c(O)ccc2c(=O)c1Oc1ccccc1Cl
    1, -1
Cc1cn2c3c(=O)n(CCCc4ccccc4)c(=O)n(C)c3nc2n1CC(C)C
    9, 4
COC(=O)c1ccc(NC(=O)Cn2c3c(c(=O)n(C4CCCCC4)c2=O)CCC3)cc1
    1, 6
COc1cccc(Cn2nc(C3CCN(S(C)(=O)=O)CC3)n(C)c2=O)c1
    -3, 4
CCc1[nH]n2c(=O)c(CC(=O)OC)c(C)nc2c1-c1ccccc1
    -15, -17

Part of the list above, field by field:
O=C(Nc1cccc(Cl)c1)C1=C(N2CCCCC2)/C(=C\c2ccccc2)CC1
  NPYLR7 ag: 6; NPYLR7 ag max-min: 7
c1ccc(CSc2ccc(-c3cccnc3)nn2)cc1
  NPYLR7 ag: -4; NPYLR7 ag max-min: -11
O=C(CCN1C(=O)c2ccccc2S1(=O)=O)N1CCC2(CCCO2)CC1
  NPYLR7 ag: 2; NPYLR7 ag max-min: 0
Cc1oc2c(C)c(O)ccc2c(=O)c1Oc1ccccc1Cl
  NPYLR7 ag: 1; NPYLR7 ag max-min: -1
